Lassa entry inh: qHTS for Inhibitors of binding or entry into cells for Lassa Virus; Lassa virus pseudotype entry inhibition, cell reporter; control for the full effect not named in the record; Potency, µM (top dose mostly 37.9 µM), for inactives: top-dose activity change, negative = inhibition, actives largely listed as inhibitors; 300,000 compounds, 1.2% hits; active means well fitted inhibition curve with a large enough effect; inconclusive means small, poorly fitted or top-dose-only effect, or effect the other way; inactive means flat fitted curve, though single readings scatter; tested in HEK293 cells; also: % is scaled to controls: 0 for no effect and ±100 for the full control effect; nearly all actives have a fitted effect of over 50% in size; luciferase read-out
Cruzain inh Det: qHTS Assay for Promiscuous and Specific Inhibitors of Cruzain (with detergent) | 200,000 compounds, 0.43% hits | Potency, µM, without a hit: max response, negative = inhibition, actives largely listed as inhibitors | Cruzipain (Trypanosoma cruzi), P25779 | purified cruzain, Z-FR-AMC fluorescence, 0.01% Triton; active = well fitted curve in the direction sought with a large enough effect; inconclusive = small, poorly fitted or top-dose-only effect, or another doubt; inactive = no such curve, though single readings can be large; an effect the other way counts as inactive or inconclusive;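 also: plate controls were neutral wells for no effect and buffer without enzyme for full effect; nearly all actives have a fitted effect of over 40% in size; top concentration of the series not given in the record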
Target sequence (P25779 123-467 limits assumed): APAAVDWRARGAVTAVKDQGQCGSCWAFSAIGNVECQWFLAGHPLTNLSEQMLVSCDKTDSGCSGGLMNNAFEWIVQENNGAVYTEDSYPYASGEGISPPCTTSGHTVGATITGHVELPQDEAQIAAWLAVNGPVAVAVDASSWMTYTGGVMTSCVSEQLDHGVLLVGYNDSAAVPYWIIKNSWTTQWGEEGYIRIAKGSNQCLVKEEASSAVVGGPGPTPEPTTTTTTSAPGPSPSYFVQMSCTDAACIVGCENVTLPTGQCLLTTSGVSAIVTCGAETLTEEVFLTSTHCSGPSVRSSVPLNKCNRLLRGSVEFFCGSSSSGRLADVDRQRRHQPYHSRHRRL
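Detergent-containing run (0.01% Triton X-100) in acetate buffer pH 5.5 with 5 mM DTT: enzyme at 1.5 nM final, 15 min compound preincubation at room temperature, then 2 uM Z-FR-AMC substrate. Activity taken as 60 s fluorescence increase at 360/450 nm.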
Cruzain inh noDet: qHTS Assay for Promiscuous and Specific Inhibitors of Cruzain (without detergent); 200,000 compounds, 2.3% hits; purified cruzain, Z-FR-AMC fluorescence, no detergent; Potency, µM, inactives show max response, negative = inhibition, usual class: inhibitors; AID 1476, 2009; active = well fitted curve in the direction sought with a large enough effect; inconclusive = small, poorly fitted or top-dose-only effect, or another doubt; inactive = no such curve, though single readings can be large; an effect the other way counts as inactive or inconclusive;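 also: plate controls were enzyme without inhibitor for no effect and buffer without enzyme for full effect; nearly all actives have a fitted effect of over 40% in size; top concentration of the series not given in the record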
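Purified cruzain at 1.5 nM, pre-incubated 15 min with compound at room temperature in 100 mM sodium acetate pH 5.5, 5 mM DTT, 0.00005% Triton X-100. Reaction started with 2 uM Z-FR-AMC; AMC fluorescence increase over 60 s gives rate.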
SARS PLpro yeast: qHTS of Yeast-based Assay for SARS-CoV PLP | S. cerevisiae expressing SARS-CoV PLpro, growth rescue; control for the full effect not named in the record | 330,000 compounds, 0.19% hits | AID 485353, 2010 | Potency, µM (top dose mostly 32.9 µM), for inactives: at the highest dose activity, positive = growth rescue; also: 0% is about no effect; nearly all actives have a fitted effect of over 55% in size; growth read by luminescence after 48 h
Marburg entry inh: qHTS for inhibitors of binding or entry into cells for Marburg Virus; Marburg virus pseudotyped entry inhibition, cell reporter; control for the full effect not named in the record; about a third of the inactives were read at about 46 µM; Potency, µM (top dose mostly 37.8 µM), inactives show top-dose activity change, negative = inhibition, hits mostly inhibitors; 300,000 compounds, 1.8% hits; active = well fitted inhibition curve with a large enough effect; inconclusive = small, poorly fitted or top-dose-only effect, or effect the other way; inactive = flat fitted curve, though single readings scatter; tested in HEK293 cells; about a fifth of its hits are not listed in these tables; also: % is scaled to controls: 0 for no effect and ±100 for the full control effect; luciferase read-out
RE007 growth inh: qHTS Assay for Inhibitors of the HIV-1 protein Vpr | S. pombe RE007 Vpr strain, BacTiter-Glo ATP luminescence, 24 h; control for the full effect not named in the record | Potency, µM (series often up to 92.2 µM), for inactives: at the highest dose activity change, negative = less growth | 360,000 compounds, 0.21% hits; active = well fitted falling curve with a large enough effect; inconclusive = small, poorly fitted or top-dose-only effect; inactive = no such curve, though single readings can be large or run the other way;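 also: % is scaled to controls: 0 for no effect and ±100 for the full control effect; nearly all actives have a fitted effect of over 50% in size; the assay follows cell death caused by Vpr and the record does not say whether a fall means rescue or toxicity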
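Fission yeast RE007 carrying one integrated HIV-1 vpr copy, seeded at OD 0.01 in PMG+AL medium with 23 nL pinned compound. Grown 24 h at 30 degrees; viability read by BacTiter-Glo luminescence after 5 min.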
NS1 inh: qHTS Assay for Inhibitors of Influenza NS1 Protein Function | S. cerevisiae slowed by influenza A NS1, growth recovery by OD600 | Potency, µM (series often up to 46.1 µM), inactives show at the highest dose activity, positive = more growth | 270,000 compounds, 0.4% hits | AID 2326, 2010; also: actives are rising curves; nearly all actives have a fitted effect of over 50% in size
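OD600 was taken as the measure of yeast growth restored by compound in an NS1-expressing S. cerevisiae strain. Cells had been washed out of glucose medium and diluted 1:100 into galactose -URA medium, pH 6.0.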
StopGo reporter: High Throughput Screening for Foot and Mouth Disease Virus Antivirals. human cells with a luciferase reporter of 2A StopGo recoding; control for the full effect not named in the record. Potency, µM (highest dose often 57.9 µM), for the others: top-dose signal change, negative = less light. 410,000 compounds, 1.2% hits. AID 1159524, 2015; active = well fitted falling curve with a large enough effect; inconclusive = small, poorly fitted or top-dose-only effect; inactive = no such curve, though single readings can be large or run the other way; tested in HEK293T cells; also: % is scaled to controls: 0 for no effect and ±100 for the full control effect; nearly all actives have a fitted effect of over 45% in size; luciferase light after 4 h
Numbers without * were called inactive; ? = inconclusive; . = not tested or not shown; & = joins results of further samples; [ ] = dose if it differs, or a comment. Unless noted, calls follow the shape of the dose curve; as a rule, active means well fitted rising curve with a large enough effect; inconclusive means small, poorly fitted or top-dose-only effect; inactive means no such curve, though single readings can be large or run the other way. Potency is read from the fitted curve at half-maximal effect.

SMILES	Lassa entry inh	Cruzain inh Det	Cruzain inh noDet	SARS PLpro yeast	Marburg entry inh	RE007 growth inh	NS1 inh	StopGo reporter
O=C(CSc1cn(CC(=O)N2CCCCC2)c2ccccc12)NCC1CCCO1 (stereo not drawn)	.	.	.	3%	-1%[46.1 µM]	0%	.	-3%
CCCN(CCC)S(=O)(=O)c1ccc(C(=O)OCCN2C(=O)c3cccc4c(N5CCOCC5)ccc(c34)C2=O)cc1	1%	-3.6%	-18%	5%	4%	2%	6%	?
CC1(c2ccccc2)CC(C)(C)N2C(=O)C(=O)c3cccc1c32 (stereo not drawn)	0%	.	.	-6%	?	5%	-39%	-19%
C1CN(CC2COC(CN3CCOCC3)CO2)CCO1 (stereo not drawn)	-4%[46.1 µM]	.	.	.	-18%[46.1 µM]	-7%	.	10%
CCN(C(=O)CN1CCN(c2ccccc2)CC1)c1c(N)n(Cc2ccccc2)c(=O)[nH]c1=O	8%	-1.1%	8%	1%	-3%[46.1 µM]	-9%	-17%	-6%
CCOC(=O)N1CCN(C(=O)c2cn(CC)c3ccc(S(=O)(=O)N4CCC(C)CC4)cc3c2=O)CC1	-2%[46.1 µM]	.	.	-1%	11%[46.1 µM]	6%	.	-5%
CCn1c(C)c(C(=O)O)c2cc(OC)ccc21	0%	-4.1%	-8%	-1%	?	6%	19%	-18%
Cc1cc(C)cc(NC(=O)c2cc(S(=O)(=O)N3CCCCCC3)cn2C)c1	1%[46.1 µM]	-2.5%	0%	.	.	.	.	-13%
CC(C)(C)c1ccc(C(=O)NNC(=O)C(=O)N2CCCCC2)cc1	-19%[14.3 µM]	3.0%	3%	1%	27%	-9%	-10%	31%[activator]
COc1ccc(OC)c(NC(=O)c2c(NCc3ccc(OC)c(OC)c3)sc3c2CCC(C)C3)c1 (stereo not drawn)	26%[46.1 µM]	-4.2%	?	.	.	.	.	-13%
CCOc1cc(-c2cc(-c3ccc(NC(C)=O)cc3)nc(N)c2C#N)ccc1O	.	.	.	2%	.	3%	13%	?
COc1ccc(-n2nc3ccc(NC(=O)c4cccc(OCCC(C)C)c4)cc3n2)cc1	-17%[46.1 µM]	-0.7%	3%	.	.	.	.	?
N#Cc1cccc(C#N)c1Oc1ccc(S(=O)(=O)Nc2ccc(Cl)cc2)cc1	.	.	.	0%	.	-7%	-3%	7%
COc1cc2c(cc1OC)C[N+](C)(C)CC2	.	.	.	1%	.	-13%	-2%	-14%
CC1CN(CC(O)c2ccc(Br)cc2)CCO1 (stereo not drawn)	-1%[46.1 µM]	.	.	.	12%[46.1 µM]	7%	.	-5%
CCn1cc(S(=O)(=O)c2ccc(OC)cc2)c(=O)c2cc(F)c(N3CCN(C)CC3)cc21	.	.	.	8%	.	2%	6%	8%
NNC(=O)c1ccc(OCC2CC(c3ccc(Cl)cc3)=NO2)cc1 (stereo not drawn)	?	.	.	-1%	?	19%	12%	26%
O=C(NCc1cccnc1)c1ccc(N2CCOCC2)c([N+](=O)[O-])c1	-1%	.	.	-1%	-11%	1%	13%	?
CCOC(=O)c1nn(-c2ccccc2C)c(=O)c(C#N)c1C	15%	3.3%	1%	0%	17%	0%	1%	16%
Cc1cccc(-n2ncc3c2CCCC3NC(=O)C2=CC(=O)CC(C)(C)O2)c1C (stereo not drawn)	-22%	.	.	-8%	?	14%	4%	?
Cn1nccc1NC(=O)NC(=O)c1c(Cl)cccc1Cl	.	.	.	0%	.	1%	-1%	1%
COc1cc(/C=N/Nc2ccc(S(N)(=O)=O)cc2[N+](=O)[O-])cc(OC)c1O	.	.	.	0%	.	0%	4%	-1%
CCOC(=O)CNC(=O)c1nn(-c2cccc(OC)c2)c(=O)c2ccccc12	1%	-1.2%	-1%	1%	18%	9%	-27%	-19%
COc1cccc(/C=C/c2onc(C)c2S(=O)(=O)N2CCC(C(=O)N3CCC(C)CC3)CC2)c1	?	-7.4%	?	.	.	.	.	-15%
N#CC(C#N)=c1ccc2c(c1)NC1(CCCCC1)N=2	?	-6.5%	9%	-29%	?	?	-89%	25µM*
Oc1cccc(C=NCc2ccccc2)c1	1%	2.8%	-5%	-8%	15%	11%	-35%	-17%
CN1[C@@H](CC(=O)c2ccccc2)CCC[C@H]1C[C@H](O)c1ccccc1	?	1.4%&-11%&-1.1%	15%&7%&0%	0%&1%	?	2%	-1%&-1%	-23%&-12%
O=C(CSc1nc2ccccc2c(=O)n1-c1ccccc1)NC(=O)CN1CCCC1=O	1%	.	.	2%	-9%[46.1 µM]	20%	.	10%
CCCCc1cc(=O)oc2cc(OCC(=O)N3CCC(C(=O)O)(c4ccccc4)CC3)ccc12	.	.	.	7%	.	67%	?	?
Cn1ccnc1C(=O)c1cc(=O)c2ccccc2o1	28%	-3.8%	3%	5%	6%	3%	-4%	.
O=C(O)CC1(CC(=O)Nc2ccccc2Br)CCCC1	15%[46.1 µM]	.	.	.	19%[46.1 µM]	0%	.	2%
Cc1cccc(N2CCN(C(=O)c3cc4n(n3)C(C(F)(F)F)CC(c3ccco3)N4)CC2)c1C (stereo not drawn)	?	-7.4%	?	?	?	?	-55%	?
CCc1ccc(CN2CCC(C(=O)Nc3cccc(-c4nnc(C)s4)c3)CC2)o1	1%	.	.	1%	?	-13%	4%	-16%
O=C(OCCN1CCCC1=O)c1cncc(Br)c1	-6%	7.3%	7%	2%	?	1%	-8%	6%
O=C(CSc1nnc(-c2ccccc2Cl)o1)Oc1ccc(Br)cc1	-1%	-9.6%	4%	-3%	4%	-17%	0%	-13%
O=C(O)CN1C(=O)/C(=C\c2cc(Br)ccc2OCc2ccccc2Cl)SC1=S	?	.	.	-1%	-26%[46.1 µM]	5%	12%	-16%
C(=N\N1CCN(Cc2ccccc2)CC1)/c1cccnc1	2%	-0.8%	-3%	-1%	?	-17%	29%	-4%
COC(=O)C1=C(C)Nc2c(c(=O)n(C)c(=O)n2C)C1c1ccncc1 (stereo not drawn)	10%	-8.0%	-7%	14%	14%	.	4%	-20%
Cc1nnc(N/N=C/c2cc([N+](=O)[O-])c(N3CCC(C)CC3)cc2N2CCC(C)CC2)n1N	-5%	-6.8%	14%	-19%	?	6%	-72%	?
CN1C(=O)CC(C(=O)Nc2ccc(F)cc2)SC1=Nc1ccc2c(c1)OCO2 (stereo not drawn)	1%	-3.9%	?	-12%	-1%	3%	-7%	.
CC(C)OC(=O)c1c(NC(=O)C2CC=CCC2C(=O)O)sc2c1CCCCC2 (stereo not drawn)	11%	.	.	2%	?	-11%	?	-10%
O=C1NC2(CCCCC2)C(=O)N1CCS(=O)(=O)Oc1ccc(Br)cc1	?	.	.	-3%	?	-15%	.	-21%
C=CCNC(=O)C(=O)NCC(c1ccc2c(c1)OCO2)N1CCN(c2ccc(F)cc2)CC1 (stereo not drawn)	-3%[46.1 µM]	.	.	9%	-5%[46.1 µM]	-11%	-6%	-11%
Cc1cc(OC(=O)c2ccccc2Cl)ccc1N1C(=O)CCC1=O	9%	.	.	-1%	27%[46.1 µM]	0%	0%	50%[activator]
Cc1ccnc(NC(=S)NC(=O)c2cccs2)c1	?	-4.2%	6%	-30%	?	.	-25%	43%[activator]
O=C(Nc1ccccc1C(=O)NC1CCCCC1)c1ccco1	-4%	0.7%	1%	6%	-6%	33%	9%	-8%
CCN(Cc1ccccc1)C(=O)C1CCN(C(=O)Nc2ccccc2)CC1	13%[46.1 µM]	.	.	-1%	2%[46.1 µM]	-6%	0%	20%
O=C(c1ccc2c(c1)OCCO2)N1CCN(c2ncc(C(F)(F)F)cc2Cl)CC1	0%	.	.	2%	-30%	-24%	.	-21%
CC(=O)Nc1cccc2c1C(=O)N(c1ccccc1OC(C)=O)C2=O	1%[46.1 µM]	.	.	-2%	?	14%	-8%	-1%
O=C1c2ccccc2NC(c2cnc3ccccc3n2)N1O (stereo not drawn)	?	-1.0%	3%	0%	?	-24%	-123%	-25%
Cc1ccc(N(C(C)C(=O)NCc2ccncc2)S(C)(=O)=O)cc1C (stereo not drawn)	3%	.	.	1%	6%[46.1 µM]	-11%	.	18%
CC(=NCc1cccnc1)c1c(O)n(Cc2ccccc2)c(=O)[nH]c1=O	16%	-1.4%	-2%	-20%	-11%	-10%	-4%	0%

Ordered by length of the SMILES (largest number first): part of the list above.
SMILES	Lassa entry inh	Cruzain inh Det	Cruzain inh noDet	SARS PLpro yeast	Marburg entry inh	RE007 growth inh	NS1 inh	StopGo reporter
C=CCNC(=O)C(=O)NCC(c1ccc2c(c1)OCO2)N1CCN(c2ccc(F)cc2)CC1 (stereo not drawn)	-3%[46.1 µM]	.	.	9%	-5%[46.1 µM]	-11%	-6%	-11%
O=C(c1ccc2c(c1)OCCO2)N1CCN(c2ncc(C(F)(F)F)cc2Cl)CC1	0%	.	.	2%	-30%	-24%	.	-21%
O=C1NC2(CCCCC2)C(=O)N1CCS(=O)(=O)Oc1ccc(Br)cc1	?	.	.	-3%	?	-15%	.	-21%
Cc1ccc(N(C(C)C(=O)NCc2ccncc2)S(C)(=O)=O)cc1C (stereo not drawn)	3%	.	.	1%	6%[46.1 µM]	-11%	.	18%
CC(=O)Nc1cccc2c1C(=O)N(c1ccccc1OC(C)=O)C2=O	1%[46.1 µM]	.	.	-2%	?	14%	-8%	-1%
Cc1cc(OC(=O)c2ccccc2Cl)ccc1N1C(=O)CCC1=O	9%	.	.	-1%	27%[46.1 µM]	0%	0%	50%[activator]
O=C(Nc1ccccc1C(=O)NC1CCCCC1)c1ccco1	-4%	0.7%	1%	6%	-6%	33%	9%	-8%
